Compound activity: PubChem, Broad Institute
FGF22 binding: binders of human FGF22 protein, primary screen, FGF22 synaptogenesis inhibitor project, biophysical, thermal shift, single point; recombinant FGF22 thermal shift, SYPRO orange fluorescence; percent of sucrose octasulfate shift, DMSO zero; calls only at 9.99 µM; 1.5% of 340,000 active; AID 651658, 2012;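 active = melting point raised past a set limit in the mean and every replicate; three in four hits are not shown here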
Target sequence (Q9HCT0 whole entry, looked up): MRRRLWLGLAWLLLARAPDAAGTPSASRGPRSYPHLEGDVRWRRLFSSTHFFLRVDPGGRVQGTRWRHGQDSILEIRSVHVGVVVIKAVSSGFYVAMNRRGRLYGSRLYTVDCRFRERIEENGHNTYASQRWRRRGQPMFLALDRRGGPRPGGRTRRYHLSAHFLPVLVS
rRNA inh HTS: reduced GFP signal of wild-type E. coli, primary screen, bacterial rRNA inhibitor project, GFP/RFP fluorescence, OD600, single point; 1.6% of 350,000 active; AID 720706, 2013; E. coli WT GFP vs humanized-ribosome RFP mutants, 24 h; stronger effect = lower value; DMSO median 0, no signal -100; GFP signal change (wild-type ribosome), % (no concentration beside the values);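 active = significant combined selectivity score with lowered wild-type GFP, culture density cut under 30%, mutant RFP and density less affected; inactive = any of these conditions unmet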; also: one replicate is shown; some compounds called inactive have numbers as strong as hits
MLL AF4-AF9 inh: inhibitors of AF4 peptide binding to AF9, primary screen, biochemical, AlphaScreen, biotin-AF4 peptide, FLAG-AF9, single point. Protein AF-9 (Homo sapiens), P42568. 0.47% of 350,000 active. inhibition, % at 10 µM;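 active = every replicate reaching a set inhibition limit, whatever the replicate mean, cut at about 25% in these data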;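 also: 0% = plate neutral control median and 100% = total signal loss; the record names both 10 and 1 µM as test concentration; the first replicate is given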
Target sequence (P42568 whole entry, looked up): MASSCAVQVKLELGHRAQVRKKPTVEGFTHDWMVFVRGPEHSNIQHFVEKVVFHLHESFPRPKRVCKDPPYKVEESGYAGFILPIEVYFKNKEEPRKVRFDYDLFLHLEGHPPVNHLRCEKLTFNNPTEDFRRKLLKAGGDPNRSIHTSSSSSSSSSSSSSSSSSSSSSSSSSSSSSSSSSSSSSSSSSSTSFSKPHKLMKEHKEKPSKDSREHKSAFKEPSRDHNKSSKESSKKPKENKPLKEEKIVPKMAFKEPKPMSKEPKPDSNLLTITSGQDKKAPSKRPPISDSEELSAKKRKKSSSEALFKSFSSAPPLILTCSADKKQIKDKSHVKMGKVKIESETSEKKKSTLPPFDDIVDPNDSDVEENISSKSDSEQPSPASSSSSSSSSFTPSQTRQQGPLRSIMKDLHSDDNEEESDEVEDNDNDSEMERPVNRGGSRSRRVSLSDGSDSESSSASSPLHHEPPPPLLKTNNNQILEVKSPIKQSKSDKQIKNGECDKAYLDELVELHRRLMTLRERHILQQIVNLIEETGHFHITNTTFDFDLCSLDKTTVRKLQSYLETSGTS
rRNA inh HTS OD600: also measured in rRNA inh HTS; calls as there; OD600 change, %; measured here: OD600 growth;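 optical density of the mix in the first replicate; 0 = DMSO median and -100 = no signal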
rRNA inh HTS RFP: further read-out of rRNA inh HTS, marked with its call; RFP signal change, %; measured here: RFP humanized mutant strains;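 first replicate; 0 = DMSO median and -100 = no signal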
Active calls of the source: *; i = inactive; & = joins results of further samples. These rows are one share of the data, so the mix of outcomes need not match the whole.

Every second line gives: FGF22 binding	rRNA inh HTS	rRNA inh HTS OD600	rRNA inh HTS RFP	MLL AF4-AF9 inh
> CN(C)C(=O)c1cccc(-c2ccc([C@@H]3[C@@H](CO)N4CCCCN(CCC(F)(F)F)C[C@@H]34)cc2)c1
→ i	-0.1	8.5	3.1	2.6
> COc1ccccc1S(=O)(=O)N(C)C[C@@H]1Oc2ncc(-c3ccc(C)cc3)cc2C(=O)N([C@H](C)CO)C[C@@H]1C
→ i	7.4&-7.4	-3.2&-23.9	2.7&6.8	-1.4&-2.5
> C[C@@H]1CN([C@H](C)CO)C(=O)c2cccc(NS(=O)(=O)c3cn(C)cn3)c2O[C@@H]1CN(C)Cc1ccc(Oc2ccccc2)cc1
→ i	2.1	8.7	-0.1	-0.8
> C=CCN=C1NC(c2cccc(Cl)c2)C(C(=O)OC)=C(C)N1Cc1ccc(C(F)(F)F)cc1 (centres undefined)
→ i	-55.4	-83.0	-18.3	-2.0
> COC(=O)[C@]12CCCCC=C1N(Cc1cccc3ccccc13)C(=O)[C@H](CC(=O)N1CCC(c3ccccc3)CC1)C2
→ i	8.5	19.6	5.2	-0.2
> C[C@@H]1CCCCO[C@@H](CN(C)C(=O)c2ccccc2)[C@@H](C)CN([C@H](C)CO)C(=O)c2cc(NC(=O)Nc3ccc4c(c3)OCO4)ccc2O1
→ i	2.7	-0.6	-1.0	1.0
> COc1ccc(NC(=O)Nc2ccc3c(c2)C(=O)N([C@@H](C)CO)C[C@@H](C)[C@@H](CN(C)C(=O)NC2CCCCC2)OCCCC[C@@H](C)O3)cc1
→ i	-1.1	0.5	-0.6	-3.5
> COc1cc(-c2c(NC(=O)c3ccco3)oc3ccc(Cl)cc3c2=O)cc(OC)c1OC
→ i	-5.3	9.1	-3.1	-4.9
> COc1ccc2c3c([nH]c2c1)[C@H](CO)N(Cc1cc(F)ccc1F)CC31CN(C(=O)C2CCC2)C1
→ i	-6.5	-7.9	2.8	2.4
> COc1ccc(CN(C)C[C@H]2Oc3ccc(NS(=O)(=O)c4ccccc4)cc3CC(=O)N([C@@H](C)CO)C[C@H]2C)cc1
→ i	0.8	-3.0	1.6	0.7
> C[C@@H]1CN([C@H](C)CO)C(=O)CCCn2nncc2CO[C@H]1CN(C)C(=O)Cc1ccccc1
→ i	19.2&0.5	9.5&-1.0	3.1&-1.7	-2.8&-2.0
> O=C(O)c1ccc2c(c1)S(=O)(=O)c1cc(N3CCN(c4ncccn4)CC3)ccc1C2=O
→ i	2.0	-6.5	-4.9	2.1
> COc1cccc(-c2csc(Nc3ccc(Oc4ccccc4)cc3)n2)c1
→ i	-5.3	0.6	6.0	2.6
> COc1ccc(C(=O)c2[nH]c(N)c(C(N)=O)c2-c2ccc(OC)c(OC)c2)cc1
→ i	-3.5	8.6	4.1	-2.4
> C[C@@H]1CN([C@@H](C)CO)C(=O)c2cc(NC(=O)Nc3cccc4ccccc34)ccc2O[C@H]1CN(C)S(C)(=O)=O
→ i	-2.7	-8.3	0.7	4.8
> CC(C)NC(=O)c1cc(C2CCCCN2S(=O)(=O)c2ccc(C#N)cc2)on1 (centres undefined)
→ i	4.0	9.9	1.2	-1.6
> OC[C@H]1Nc2ccc(-c3cccc(F)c3)cc2[C@@H]2[C@H]1CCN2Cc1ccncc1
→ i	0.8	1.5	5.7	-1.5
> COC(=O)c1c(-c2ccc(OC)cc2)c2c(c3c4cc(OC)ccc4n(S(=O)(=O)c4ccc(F)cc4)c13)C(=O)N(C)C2
→ i	-6.4	-1.5	2.6	-3.2
> Cc1cc2c(cc1C)C(=O)CCC2
→ i	4.1	14.5	-5.3	-0.5
> COc1cccc(-c2ccc(NC(=O)C3CCCN(Cc4cccc(C)n4)C3)cc2)c1 (centres undefined)
→ i	-58.0	-83.0	-20.5	2.8
> CSCCC(C(=O)NC1CCCC1)n1c(C2CC2)nc2ccccc21 (centres undefined)
→ i	5.1	4.6	0.4	-0.8
> Cc1[nH]nc(C(=O)NN=Cc2ccccc2Cl)c1N=NN(C)C
→ i	-21.0*	-17.9*	-8.4*	3.3
> CCOc1cc(C)nc(N2CCC(C(=O)NCC3CCCO3)CC2)n1 (centres undefined)
→ i	8.3	9.1	-0.9	7.3
> C[C@@H]1CN([C@@H](C)CO)C(=O)Cc2cc(NC(=O)CCN3CCOCC3)ccc2O[C@H]1CN(C)C(=O)NC1CCCCC1
→ i	3.0	6.8	-0.8	-3.0
> CO[C@@H]1CN(C)C(=O)c2cc(NC(=O)c3ccccc3F)ccc2OC[C@H](C)N(CC2CC2)C[C@@H]1C
→ i	1.8	-0.8	-2.4	-1.1
> CCCNC(=O)C[C@@H]1CC[C@@H]2[C@@H](COc3ccc(NC(=O)Cc4ccccc4)cc3C(=O)N2C)O1
→ i	2.9	2.3	0.5	2.1
> C=Cc1ccc(Cn2c(C)c(C(=O)NCc3ccc4c(c3)OCCO4)sc2=O)cc1
→ i	-3.5	-1.7	-5.2	-11.5
> CCNC(=O)C[C@H]1CC[C@@H]2[C@@H](COc3ccc(NC(=O)NC(C)C)cc3C(=O)N2C)O1
→ i	1.9	4.3	-1.1	-0.4
> CN(C)C(=O)C[C@H]1CC[C@@H]2[C@@H](COc3ccc(NC(=O)C4CC4)cc3C(=O)N2C)O1
→ i	3.2	-2.2	-4.8	-0.7
> C/C=C/c1ccc2c(c1)O[C@H](CN(C)C(=O)c1ccncc1)[C@@H](C)CN([C@H](C)CO)S2(=O)=O
→ i	0.8	2.9	-2.4	-0.3
> COc1ccccc1S(=O)(=O)N[C@H]1CC[C@@H](CCNC(=O)C2CCOCC2)O[C@H]1CO
→ i	3.4	2.7	0.4	-0.6
> CO[C@H]1CN(C)C(=O)c2cc(NC(=O)Nc3ccc4c(c3)OCO4)ccc2OC[C@@H](C)NC[C@@H]1C
→ i	3.2	1.2	-1.3	22.2
> CC(C)NC(=O)Nc1ccc2c(c1)CC(=O)N([C@@H](C)CO)C[C@H](C)[C@H](CN(C)C)O2
→ i	3.8	8.3	0.6	-1.5
> C[C@H]1CN([C@@H](C)CO)C(=O)c2c(c3ccccc3n2C)-c2ccccc2CO[C@H]1CN(C)Cc1cccc(C(F)(F)F)c1
→ i	-1.0	0.9	0.4	-6.7
> COCC(=O)N1CC[C@@H]2[C@H]1c1cc(C#Cc3ccccc3)ccc1N[C@@H]2CO
→ i	-4.8	-7.2	11.1	-1.7
> COc1ccc(NC(=O)Nc2cccc3c2O[C@@H](CN(C)C)[C@@H](C)CN([C@H](C)CO)C3=O)cc1
→ i	0.9	1.0	0.0	-1.9
> COc1ccc(S(=O)(=O)Nc2ccc3c(c2)C(=O)N([C@@H](C)CO)C[C@@H](C)[C@@H](CN(C)CC2CCCCC2)O3)cc1
→ i	3.6	-6.7	-0.6	1.9
> CCCC(=O)Nc1ccc2c(c1)OC[C@H](C)N(C(=O)CC1CC1)C[C@@H](C)[C@@H](OC)CN(C)C2=O
→ i	0.3	0.0	-1.9	-1.9
> CCNC(=O)C1(C)CCCN(CC(=O)c2ccccc2OC)C1 (centres undefined)
→ i	2.4	7.0	-2.9	1.2
> O=C(C[C@H]1C[C@H]2c3cc(NS(=O)(=O)c4ccc(F)cc4)ccc3O[C@H]2[C@@H](CO)O1)N1CCc2ccccc2C1
→ i	-33.7	-44.9	5.4	4.4
> N#Cc1ccc(-c2ccc([C@@H]3[C@H]4CN(S(=O)(=O)c5ccccc5)CCCCN4[C@H]3CO)cc2)cc1
→ i	-6.5	-12.7	0.5	-3.9
> C[C@@H]1CN([C@H](C)CO)S(=O)(=O)c2ccc(-c3cncnc3)cc2O[C@@H]1CN(C)Cc1ccccc1
→ i	6.2	10.1	-2.3	-1.1
> COc1ccc(NC(=O)N(C)C[C@H]2Oc3c(NS(=O)(=O)c4ccc(OC)cc4)cccc3C(=O)N([C@@H](C)CO)C[C@@H]2C)cc1
→ i	-1.3	1.4	3.6	4.0
> O=C(N[C@@H]1CC[C@H](CCn2cc(-c3cccnc3)nn2)O[C@@H]1CO)c1ccccc1F
→ i	0.6	1.3	-2.1	4.4
> C[C@@H]1CN([C@H](C)CO)S(=O)(=O)c2ccc(Br)cc2O[C@H]1CN(C)C
→ i	-1.3	0.5	-4.1	-3.5
> C=CCCC1CN(CC=C)S(=O)(=O)c2c(F)cccc2O1 (centres undefined)
→ i	-31.5	-37.0	-9.3	1.1
> Cc1ccc(-n2c(SCC(=O)NC3CCS(=O)(=O)C3)nc3ccccc3c2=O)c(C)c1 (centres undefined)
→ i	-0.6	4.5	-4.4	2.0
> CCC(=O)Nc1ccc2c(c1)C(=O)N(C)C[C@H](OC)[C@H](C)CN(C(=O)c1cccnc1)[C@@H](C)CO2
→ i	-0.5	2.3	-1.4	-1.5
> CC=Cc1ccc2n(c1=O)C[C@@H]1[C@@H](CO)[C@H](C(=O)NCCc3ccccc3)N(C(C)=O)[C@H]21 (mixture of isomers)
→ i	0.9	2.3	-0.7	0.6
> CC(C)CC#Cc1ccc([C@H]2[C@H](CO)N3CCCCN(S(=O)(=O)c4ccc(F)cc4)C[C@@H]23)cc1
→ i	1.7	-0.8	0.4	2.6
> c1ccc(CNc2c(C3CCNCC3)nc3scc(-c4ccccc4)n23)cc1
→ i	-12.0	-8.4	1.7	6.2
> c1ccc2c(c1)c1c(c3ccccc32)CN2CCCC2C1 (centres undefined)
→ i	-65.4	-81.3	-19.3	8.4
> CN1[C@H](C(=O)NC2Cc3ccccc3C2)[C@@H](CO)[C@@H]2Cn3c(ccc(-c4cncnc4)c3=O)[C@@H]21
→ i	-2.5	6.8	-0.1	1.3
> CCC(=O)N1CCCCN2[C@H](CO)[C@@H](c3ccc(-c4cccc(C(=O)N(C)C)c4)cc3)[C@H]2C1
→ i	5.0	20.4	-0.4	13.8
> COc1cccc(S(=O)(=O)N[C@@H]2CC[C@H](CCNC(=O)Cc3ccncc3)O[C@@H]2CO)c1
→ i	2.4	3.6	-1.6	-1.7
> O=S(=O)(c1ccc(C(F)(F)F)cc1)N1CCCc2nc(-c3ccc(F)cc3)ccc21
→ i	16.2	13.9	1.1	-0.8
> COCC#Cc1cnc2c(c1)C(=O)N([C@H](C)CO)C[C@H](C)[C@H](CN(C)C(=O)Nc1cccc(F)c1)O2
→ i	2.2	6.7	-1.8	-3.5
> CS(=O)(=O)Nc1ccc2c(c1)[C@H]1C[C@H](CC(=O)NCC(F)(F)F)O[C@@H](CO)[C@H]1O2
→ i	7.1	19.4	-4.6	-10.9
> CO[C@@H]1CN(C)C(=O)c2cc(NC(=O)Cc3ccccc3)ccc2OC[C@H](C)N(C(C)=O)C[C@H]1C
→ i	-0.5	0.1	-0.9	-2.7
> O=C(N[C@H]1CC[C@H](CCn2cc(-c3ccccc3F)nn2)O[C@@H]1CO)c1ccc2c(c1)OCO2
→ i	-5.3	-4.7	2.6	-18.1

Next part
Every second line gives: FGF22 binding	rRNA inh HTS	rRNA inh HTS OD600	rRNA inh HTS RFP	MLL AF4-AF9 inh
> COc1ccc(CNC(=O)Nc2ccc3c(c2)c(=O)n(C)n3Cc2cccc(C(F)(F)F)c2)cc1
→ i	1.6	-10.2	2.3	-2.3
> OC(c1ccccc1)c1nc(/C=C/c2ccccc2)cs1 (centres undefined)
→ i	-61.7	-82.0	-22.1	3.1
> COc1ccc(-c2cnc3c(c2)C(=O)N([C@H](C)CO)C[C@@H](C)[C@H](CN(C)S(C)(=O)=O)O3)cc1
→ i	-2.0	-2.3	0.1	-1.9
> CN1C(=O)c2cc(NC(=O)c3ccccc3)ccc2OC[C@@H]2O[C@@H](CC(=O)NCC3CC3)CC[C@H]21
→ i	2.7	-0.9	2.0	-1.5

Some of the entries so far, as tab-separated lines.
structure	FGF22 binding	rRNA inh HTS	rRNA inh HTS OD600	rRNA inh HTS RFP	MLL AF4-AF9 inh
COc1ccc(CN(C)C[C@H]2Oc3ccc(NS(=O)(=O)c4ccccc4)cc3CC(=O)N([C@@H](C)CO)C[C@H]2C)cc1	i	0.8	-3.0	1.6	0.7
OC[C@H]1Nc2ccc(-c3cccc(F)c3)cc2[C@@H]2[C@H]1CCN2Cc1ccncc1	i	0.8	1.5	5.7	-1.5
COCC(=O)N1CC[C@@H]2[C@H]1c1cc(C#Cc3ccccc3)ccc1N[C@@H]2CO	i	-4.8	-7.2	11.1	-1.7
